Screening results deposited in PubChem BioAssay by National Center for Advancing Translational Sciences (NCATS).
D2 agonist: human D2 receptor agonism in beta-arrestin assay | activation, % (no concentration beside the values) | actives 0.084% (n = 360,000) | DiscoveRx PathHunter D2 beta-arrestin, luminescence, 90 min; 100% = 57 uM dopamine signal | AID 624465 | P14416; in the data active = activation above about 40%; inconclusive = about 15% to 40%; inactive = below about 15%; also: compound concentration not given in the record; the text of the record calls up to 30% inactive
Target sequence (P14416 whole entry, looked up): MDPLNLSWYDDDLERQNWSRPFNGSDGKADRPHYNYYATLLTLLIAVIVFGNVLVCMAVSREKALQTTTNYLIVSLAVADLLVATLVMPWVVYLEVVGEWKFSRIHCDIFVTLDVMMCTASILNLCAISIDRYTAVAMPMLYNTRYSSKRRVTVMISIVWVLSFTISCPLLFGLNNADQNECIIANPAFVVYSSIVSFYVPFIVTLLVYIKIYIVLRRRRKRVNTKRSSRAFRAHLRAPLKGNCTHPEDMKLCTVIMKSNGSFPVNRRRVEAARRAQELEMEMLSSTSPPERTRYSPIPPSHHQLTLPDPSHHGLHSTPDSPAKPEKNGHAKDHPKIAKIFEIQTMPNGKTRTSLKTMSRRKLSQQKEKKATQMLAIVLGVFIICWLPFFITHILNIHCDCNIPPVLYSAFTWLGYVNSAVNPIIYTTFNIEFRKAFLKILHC
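DiscoveRx PathHunter D2 beta-arrestin cells (2,100/well) attached overnight, then compound-stimulated 90 min at 37 C in HBSS/10 mM HEPES/0.1% Tween-20 buffer; beta-galactosidase complementation read by luminescence after 1 h at ambient temperature. Dopamine 57 uM final (EC100) as control.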
PINK1 modulator: modulators of PINK1 expression; PINK1 immunofluorescence, high-content cytometry, 24 h; actives 0.2% (n = 410,000); Potency, µM (doses to about 76.6 µM), without a hit: top-dose activation (PINK1 increase), most hits filed as activators; active = well fitted activation curve with a large enough effect; inconclusive = small, poorly fitted or top-dose-only effect; inactive = flat fitted curve, though single readings scatter; cell line not stated here;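 also: potency is read from the fitted curve at half-maximal effect; % of control where 0% means no effect; nearly all actives have a fitted effect of over 65% in size; a mitochondrial uncoupler was the plate control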
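PINK1 protein level read as immunofluorescence by microplate cytometer in a fixed, stained stable cell line after 24 h exposure to five compound concentrations, with CCCP as control.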
CtBP-E1A blk: blocks the CtBP interaction with E1A; actives 0.49% (n = 340,000); AlphaScreen GST-E1A/His-CtBP binding, 1536-well; active compounds read low; control for the full effect not named in the record; AID 651724; activity change, % (no concentration beside the values); in the data active means activity change below about -65%; inconclusive means about -30% to -65%; inactive means above about -30%; also: % is scaled to controls: 0 for no effect and ±100 for the full control effect
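GST-E1A and His-tagged CtBP (125 nM each as 5X stock) were preincubated with pin-transferred compound for 2 h at 37 °C in the dark, then glutathione donor and nickel acceptor beads were added for 1 h before AlphaScreen reading.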
D2 potentiator: positive allosteric modulators of human D2 dopamine receptor; DiscoveRx D2 beta-arrestin cells, luminescence, 90 min; 100% = 57 uM dopamine signal; potentiation, % (concentration not given with the values); actives 0.23% (n = 360,000); AID 624464; active = potentiation of 50% or more; inconclusive = 30% to 50%; inactive = 30% or less;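 also: compound concentration not given in the record; tested on top of an EC20 dose of dopamine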
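D2 cells co-treated with compound plus 50 nM dopamine (EC20) for 90 min at 37 deg C to detect potentiation. Beta-arrestin recruitment was read as enzyme-fragment luminescence after 1 h at ambient temperature. Full response was set by 57 uM dopamine.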
Six1-Eya2 blk: Six1/Eya2 interaction inhibition. AID 651725. Q15475+O00167. actives 0.56% (n = 360,000). activity change, % (test concentration not listed). AlphaScreen GST-Six1/His-Eya2 binding, biochemical; active compounds read low; control for the full effect not named in the record; in the data active = activity change below about -65%; inconclusive = about -30% to -65%; inactive = above about -30%; also: % is scaled to controls: 0 for no effect and ±100 for the full control effect
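AlphaScreen luminescence read after one hour at 37 °C in darkness. Pin-transferred compounds met GST-Six1 and His-Eya2 protein (5X stock 250 nM/500 nM) plus glutathione donor and Ni-chelate acceptor beads (5X, 50 ug/mL).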
TRPML1 ag: human mucolipin-1 channel agonism | Q9GZU1 | TRPML1-expressing cells, Ca2+ dye fluorescence, FDSS; host cell line not named in the record; reference of the full effect not given here | activation, % (concentration not given with the values) | actives 0.12% (n = 410,000); in the data active = activation above about 50%; inconclusive = about 30% to 50%; inactive = below about 30%; also: 0% is about no effect; the text of the record puts the active cut at 80%
Target sequence (Q9GZU1 whole entry, looked up): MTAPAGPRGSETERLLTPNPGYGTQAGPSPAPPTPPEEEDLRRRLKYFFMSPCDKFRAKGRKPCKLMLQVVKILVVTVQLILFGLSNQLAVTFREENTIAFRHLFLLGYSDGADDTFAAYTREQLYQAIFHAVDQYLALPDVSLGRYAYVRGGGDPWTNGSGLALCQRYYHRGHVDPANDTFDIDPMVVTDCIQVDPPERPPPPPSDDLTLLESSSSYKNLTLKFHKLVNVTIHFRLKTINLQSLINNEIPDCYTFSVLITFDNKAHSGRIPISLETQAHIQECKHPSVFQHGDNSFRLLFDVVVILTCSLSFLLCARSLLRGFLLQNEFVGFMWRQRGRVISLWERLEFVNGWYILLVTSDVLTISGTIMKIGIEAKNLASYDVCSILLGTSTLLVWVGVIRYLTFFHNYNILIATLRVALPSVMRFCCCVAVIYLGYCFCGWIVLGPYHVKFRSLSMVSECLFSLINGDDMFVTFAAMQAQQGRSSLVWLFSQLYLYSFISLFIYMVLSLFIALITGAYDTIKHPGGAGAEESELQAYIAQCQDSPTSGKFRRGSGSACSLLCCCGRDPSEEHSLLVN
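Kinetic FDSS Ca2+ read in Tet-induced TRPML1-DL cells (ABD Ca8 dye plus quencher, 45-90 min RT loading): baseline, then compound, then 110 s agonist window; EC80 agonist 54-4 at 4uM final added afterwards for a 110 s antagonist window.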
* = called active by the depositor; u = inconclusive; x = not tested or not shown; & = joins results of further samples; [ ] = remark or other dose.

SMILES | D2 agonist | PINK1 modulator | CtBP-E1A blk | D2 potentiator | Six1-Eya2 blk | TRPML1 ag
Cn1c(N)c(C(=O)COC(=O)Cc2ccccc2)c(=O)n(C)c1=O | -0.7 | -1.3% | 2 | -6 | -8 | 1.5
Cn1cc(Br)c(C(=O)Nc2ccc3c(C(F)(F)F)cc(=O)oc3c2)n1 | -6.4 | 1.0% | 0 | -6 | 2 | -0.8
CCOc1cccc(=NC2CCCCC2)c2c(C)n(C)c(C)c12 | -4.1 | 16µM* | -23 | -28 | -18 | 0.1
COc1ccc(/C=C2/C(=O)NC(=O)N(c3ccc(C)c(C)c3)C2=O)cc1CN1C(=O)c2ccccc2C1=O | -6.0 | 6.4% | 9 | -1 | -23 | -0.6
COC(=O)C(C)Oc1cc(C)cc2oc(=O)c3c(c12)CCC3 (stereo unspecified) | -5.9 | 4.4% | 4 | -2 | -2 | 1.9
N#CC1(c2ccccc2)CCN(C2CC(=O)N(c3ccc(F)cc3)C2=O)CC1 (stereo unspecified) | 4.9 | 0.3% | x | -5 | 5 | 0.4
Cc1cc(/C=C2/C(=O)NC(=O)N(Cc3ccco3)C2=O)c(C)n1-c1ccccc1 | -2.0 | 1.7% | 3 | -7 | -11 | 0.7
CN1OC[C@@H]2CN[C@H](c3ccccc3Br)C[C@@H]21 | -1.4 | -2.0% | 8 | -1 | 5 | 3.1
O=C1NC(=O)C2(CCN(c3ccccc3)CC2)C(=O)N1 | -1.5 | 2.5% | 12 | 2 | 4 | 0.9
O=C(O)C(O)(c1ccccc1)C1CCCCC1 (stereo unspecified) | 2.8 | 2.7% | 0 | 1 | 1 | 0.1
O=C(COc1ccc(Cl)cc1)N1CCN(Cc2ccccc2)CC1 | -0.1 | -6.0%[38.3 µM] | 9 | -5 | -1 | -0.2
CCCCn1c(N)c(C(=O)OCCOC)c2nc3ccccc3nc21 | -2.5 | -0.2% | -6 | 4 | 0 | 1.0
COC(=O)C1=C(c2ccccc2OCc2ccccc2)C[C@@H]2CC[C@H]1N2C(=O)NCCN1CCOCC1 | -4.0 | -0.5% | 0 | -14 | -2 | -0.8
CNCCCc1ccccc1 | -0.3 | 2.0% | -2 | -5 | 4 | 0.2
CCCCNS(=O)(=O)c1ccc(OCC(=O)N2CCN(Cc3ccc4c(c3)OCO4)CC2)cc1 | 1.0 | 2.2% | 0 | 4 | -3 | 0.2
COc1ccc(-n2nnnc2C(c2ccnc3ccccc23)N2CCC(n3c(=O)[nH]c4ccccc43)CC2)cc1 (stereo unspecified) | 12 | 1.9% | -6 | 9 | -12 | -0.4
CSCCC(N=Cc1c(O)n(-c2ccc(F)cc2)c(=O)[nH]c1=O)C(=O)OC(C)(C)C (stereo unspecified) | -1.2 | 0.3% | -1 | -9 | 0 | 1.0
NS(=O)(=O)OC(CCc1ccccc1)C(Cl)(Cl)Cl (stereo unspecified) | 0.6 | 7.5% | 9 | 0 | 4 | -0.7
COc1ccc2c(c1OC)C(=O)O[C@H]2[C@@H]1c2cc3c(cc2CCN1C)OCO3 | -4.4 | 2.1% | 0 | -4 | 21 | 0.5
Cc1nn(CC(C)C)c(Cl)c1C(=O)NC1CCCCC1 | -3.4 | 2.8% | 2 | 22 | 0 | 0.6
COc1cc([C@@H]2c3cc4c(cc3[C@@H](OC)[C@H]3COC(=O)[C@H]23)OCO4)cc(OC)c1O | 0.7 | -1.1% | 6 | 1 | 1 | -1.0
CCOC(=O)C(O)(c1ccc(NC(=O)c2ccc(Cl)c(Cl)c2)cc1)C(F)(F)F (stereo unspecified) | -3.2 | 19% | x | -19 | 1 | -1.1
COc1ccc(O)c(CN2CCCC(C(=O)c3sccc3C)C2)c1 (stereo unspecified) | -2.7 | -1.9% | 0 | -19 | -25 | -0.7
CC(C)(C)n1nnnc1C(c1ccnc2ccccc12)N1CCC2(CC1)C(=O)NCN2c1ccccc1 (stereo unspecified) | 0.6 | 1.0% | 5 | -7 | 3 | -0.2
C[C@]12CCC3C(CC[C@H]4C[C@H](O)CC[C@]34C)C1C[C@H](O)[C@H]2O (stereo partly specified) | 3.5 | 1.5% | 7 | -5 | -5 | -0.2
Remaining list, next part.
SMILES | D2 agonist | PINK1 modulator | CtBP-E1A blk | D2 potentiator | Six1-Eya2 blk | TRPML1 ag
CCCCn1c(O)c(C(CC)=NCc2ccc(F)cc2)c(=O)[nH]c1=O | 0.8 | -3.5%[38.3 µM] | -4 | -5 | 0 | 1.8
CCOC(=O)CNC(=O)N1Cc2cc(N3CCOCC3)ccc2-n2nncc2C1 | -1.8 | 0.8% | 4 | 5 | 2 | -0.8
O=C(c1cccc(C(F)(F)F)c1)C1CCCN(Cc2ncc[nH]2)C1 (stereo unspecified) | 3.6 | 0.6% | 2 | -16 | -13 | 0.4
COc1ccc(CC2C(=O)N(C)C(=O)N(C)C2=O)c(OC)c1 | 6.4 | 0.7% | -9 | 0 | 19 | 0.2
CO[C@H]1C=C2CCN(C)[C@H]2C2c3cc4c(cc3C(=O)O[C@@H]21)OCO4 (stereo partly specified) | -5.2 | 0.4% | -18 | -6 | 1 | 0.4
O=C(COC(=O)Cc1ccccc1)Nc1ncc(Cl)cc1Cl | -0.5 | -2.7% | -3 | 21 | 7 | 1.4
Cn1cc(C=O)c2nccnc21 | -4.2 | 0.7% | -3 | -5 | -17 | -0.9
CSc1ncc(CN2CCCC(C(=O)c3ccccc3SC)C2)cn1 (stereo unspecified) | -4.9 | -0.9% | -8 | -34 | 0 | 0.8
Cc1ccc(-c2cc(-c3ccccc3)cc(-c3ccccc3)[n+]2-c2ccc(C(=O)O)cc2)cc1 | -1.2 | -0.5% | -18 | -4 | -1 | -0.1
COc1ccccc1NC1=NCCS1 | -3.6 | -1.3% | -2 | -16 | -1 | -0.8
CC1C(=O)OC2CCN3CC4OC4(COC(=O)C(C)(O)C1(C)O)C23 (stereo unspecified) | 2.0 | -2.9% | 4 | -13 | 1 | 0.0
COc1ccc2c(c1O)C13CCN(C)C(C2)C1CCC(=O)C3 (stereo unspecified) | 0.1 | -1.0% | x | 3 | -3 | 0.8
NCCNc1ccc([N+](=O)[O-])c2cccnc12 | -6.2 | 0.1% | -20 | -5 | -23 | -0.4
Cc1ccccc1NS(=O)(=O)c1ccc(OCC(=O)N2CCN(C)CC2)cc1 | 2.0 | -0.2% | 0 | -16 | 1 | 0.8
O=C(c1ccccc1)C(CN1CCCC1)c1ccccc1 (stereo unspecified) | -6.3 | -2.9% | 2 | -34 | 11 | 1.7
CC[C@@H](O)C[C@H]1CCC[C@@]2(C[C@@H]3OC(=O)/C=C/[C@@](C)(O)[C@@H](O)[C@H](C)[C@@H](O)[C@H](OC4CCC(N(C)C)C(C)O4)[C@@H](O)[C@](C)(O)CCCCC/C=C/[C@@H]4CC(C)(C)O[C@@]4(O)C[C@H](O2)[C@H]3C)O1 (stereo partly specified) | 2.2 | -6.0% | 6 | -20 | -2 | 0.1
COc1ccc(Oc2cc(NC(=O)c3nn(C)cc3[N+](=O)[O-])cc([N+](=O)[O-])c2)cc1 | 2.8 | -0.4% | -21 | 17 | -23 | -0.6
Cc1nn(-c2ccccc2)c2c1C(c1ccc3c(c1)OCO3)SCC(=O)N2 (stereo unspecified) | -0.3 | x | 8 | -17 | 3 | 1.2
O=C(c1c[nH]cc1-c1ccccc1)c1cccc2ccccc12 | -3.1 | -0.6% | -29 | 7 | u | -0.4
ClCCN(CCCl)c1ccc(C=NNc2ncccn2)cc1 | 0.3 | -0.2% | -14 | -7 | -10 | -1.3
O=C(O)c1ccc(-[n+]2c(-c3ccccc3)cc(-c3ccccc3)cc2-c2ccccc2)cc1 | -3.7 | 0.0% | 3 | -9 | 3 | -0.4
CN(C(=O)Oc1cccc2ccccc12)C1C=CCC1 (stereo unspecified) | 0.9 | 5.4% | 4 | x | 10 | -0.6
CCN1CCN(C(=O)COc2ccc(S(=O)(=O)N3CCOCC3)cc2C)CC1 | -3.1 | 2.9% | 3 | -7 | -7 | 2.2
Cc1ccccc1NC1=NCC(C)S1 (stereo unspecified) | 3.3 | 3.9%[38.3 µM] | 4 | 11 | 4 | 3.0
CN1OC[C@@H]2CN[C@H](c3ccc(Br)cc3)C[C@@H]21 | -12 | 0.9% | -12 | -4 | 0 | 0.0
New compounds follow
SMILES | D2 agonist | PINK1 modulator | CtBP-E1A blk | D2 potentiator | Six1-Eya2 blk | TRPML1 ag
Cc1ccccc1CN1CCN(c2ccc(Cl)cc2)CC1 | -2.3 | -1.3% | 5 | -20 | -2 | -0.1
Cc1ccc(-n2c(-c3ccc([N+](=O)[O-])cc3)nc3ccccc3c2=O)cc1 | 5.0 | 3.5% | -14 | 10 | -12 | -1.2
CC(C)C[C@@H]1COc2cccc(N3CCN(C)CC3)c2S(=O)(=O)N1 | x | -0.5% | 4 | x | -5 | -0.8
COC(=O)C1=C(c2ccc(-c3ccccc3)c(F)c2)C[C@@H]2CC[C@H]1N2C(=O)N1CCc2cc(OC)c(OC)cc2C1 | -1.1 | 1.7% | u | -12 | u | 1.5
CC1([N+](=O)[O-])COP(=O)(Nc2ccc(F)cc2)OC1 (stereo unspecified) | 0.1 | -2.7% | 1 | -5 | -3 | 0.0
COc1ccc(-n2c(O)c(C(C)=NCc3ccco3)c(=O)[nH]c2=O)cc1 | -2.3 | 1.3% | -11 | -23 | 1 | 0.1
CCCC(=O)C1C(=O)NC(=O)NC1=O | -2.4 | -1.0% | 0 | -3 | 8 | 0.6
CSc1nc2ccccc2c(=O)n1-c1cccnc1 | -1.7 | 0.6% | 11 | -6 | -2 | 0.9
COc1ccc(OC)c(CN2CCN(C(=O)Cc3ccccc3)CC2)c1 | -8.1 | -0.5% | 9 | -28 | -7 | -0.5
CSc1nc(Cl)c(Br)c(N2CC2)n1 | 0.7 | -1.2% | 5 | -2 | 3 | -0.5
COC(=O)c1ccc(CC(C(=O)c2ccccc2)N(C)C)cc1 (stereo unspecified) | -3.4 | 3.0% | x | -9 | -2 | 1.0
CCCC(=O)N(C)C1=Nc2ccc(Cl)cc2C(c2ccccc2)=[N+]([O-])C1 | -2.5 | 2.9% | x | -10 | 7 | 0.1
Cc1nccc2c1[nH]c1ccccc12 | 4.6 | -1.2%&0.3%&2.2% | 1 | -4 | 1 | -1.4&-0.4

Taken from above.
In D2 potentiator, `COc1ccc(-n2c(O)c(C(C)=NCc3ccco3)c(=O)[nH]c2=O)cc1` is listed with -23
In PINK1 modulator, `CSc1nc2ccccc2c(=O)n1-c1cccnc1` is listed with 0.6%

Record cards (already shown). Screens in order: D2 agonist | PINK1 modulator | CtBP-E1A blk | D2 potentiator | Six1-Eya2 blk | TRPML1 ag
`CSc1nc(Cl)c(Br)c(N2CC2)n1` across the screens: 0.7 | -1.2% | 5 | -2 | 3 | -0.5
`CC(C)C[C@@H]1COc2cccc(N3CCN(C)CC3)c2S(=O)(=O)N1` across the screens: x | -0.5% | 4 | x | -5 | -0.8
`CSc1nc2ccccc2c(=O)n1-c1cccnc1` across the screens: -1.7 | 0.6% | 11 | -6 | -2 | 0.9

Not all compounds are listed. The share of hits here may be higher or lower than overall.
